Screening results (PubChem)
Rango release inh = inhibition of RanGTP-driven Rango-importin beta dissociation. Biochemical FRET Rango-importin beta, RanGTP-induced dissociation. O95149+P62826. AID 540253. 340,000 tested, 0.071% active. Potency, µM (titrated, usually from 46.1 µM), for inactives: at the highest dose activity change, negative = inhibition; active means falling FRET ratio curve, often poorly fitted, with flat reads before Ran was added; inconclusive means other falling curves, or compound fluorescence or quenching; inactive means flat or rising ratio curve;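 also: potency is read from the fitted curve at half-maximal effect; % of control where 0% means no effect; nearly all actives have a fitted effect of over 45% in size; -100% = wells without RanGTP and RCC1; the record marks most hits as doubtful in a second field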
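Two FRET readings bracket the reaction: one 5 min after compound meets Rango–importin beta, another 45 min after RanGTP-RCC1 (0.6 uM Ran, 0.2 uM RCC1, 2 mM GTP) is added. Only the second defines inhibition.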
GLA inh pH 4.5 = alpha-galactosidase A (human) inhibition, pH 4.5; activity change, negative = inhibition, % at 105 µM; purified enzyme, 4-MU-alpha-Gal fluorescence, pH 4.5; 230,000 tested, under 10 active; P06280; inconclusive = small, poorly fitted or top-dose-only inhibition, or a rising curve; inactive = flat fitted curve, though single readings scatter; no compound was filed as active;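 also: 0% = full activity with enzyme and -100% = basal without enzyme; dose as in the result columns while the protocol names 77 µM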
Target sequence (P06280 whole entry, looked up): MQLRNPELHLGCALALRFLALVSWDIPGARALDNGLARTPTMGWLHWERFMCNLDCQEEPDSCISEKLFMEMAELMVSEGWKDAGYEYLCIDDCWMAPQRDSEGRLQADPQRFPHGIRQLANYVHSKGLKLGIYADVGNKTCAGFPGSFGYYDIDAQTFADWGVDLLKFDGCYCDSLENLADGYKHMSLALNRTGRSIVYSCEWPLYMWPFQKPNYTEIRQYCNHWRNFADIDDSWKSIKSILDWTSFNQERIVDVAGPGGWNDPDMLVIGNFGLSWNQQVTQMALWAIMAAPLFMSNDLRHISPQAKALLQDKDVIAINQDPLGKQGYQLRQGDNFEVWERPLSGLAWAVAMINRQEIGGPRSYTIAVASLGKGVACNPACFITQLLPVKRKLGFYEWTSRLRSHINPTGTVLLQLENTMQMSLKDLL
miR-21 FLuc = miR-21 reporter, rising signal; HeLa miR-21 FLuc reporter, luciferase, 48 h; 340,000 tested, under 10 active; Potency, µM (doses to about 38.3 µM), for the others: top-dose reporter change, positive = more light; active = well fitted rising curve with a large enough effect; inconclusive = small, poorly fitted or top-dose-only effect; inactive = no such curve, though single readings can be large or run the other way;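 also: % of control where 0% means no effect; miR-21 action dims this reporter so a rising signal means less miR-21 action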
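Compounds were titrated across several concentrations (up to approximately 40 uM) and incubated 48 hours with HeLa miR-21-FLuc reporter cells (miR-21 target sequence downstream of FLuc, endogenous miR-21). Readout was firefly luciferase luminescence after lytic detection reagent.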
Rango complex inh = Rango-importin beta binding inhibition. Q14974. Rango CFP/YFP FRET sensor + importin beta, 45 min. Potency, µM (titrated, usually from 92.2 µM), for the others: at the top dose inhibition of complex formation. 340,000 tested, 0.031% active. AID 540263; active = rising FRET ratio curve, often small or poorly fitted; inconclusive = mostly compound fluorescence or quenching in the first reads; inactive = flat curves in all reads;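 also: potency is read from the fitted curve at half-maximal effect; 0% = DMSO wells and 100% = buffer wells lacking importin beta; nearly all actives have a fitted effect of over 15% in size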
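FRET biosensor (snurportin 1 IBB flanked by EYFP and cerulean), 50 nM, with compound 5 min, then 0.125 microM importin beta in PBS, 1 mM DTT, 0.02% Tween-20, 0.1% BSA. CFP/YFP ratio read after 45 min at room temperature; pre-read flags interference.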
* = called active by the depositor; ? = inconclusive; / = no result given; & = joins results of further samples. Some of the compounds tested. The share of hits here may be higher or lower than overall.

Order of results – Rango release inh, miR-21 FLuc, GLA inh pH 4.5, Rango complex inh
O=c1[nH]c(O)c(N=Nc2cc([N+](=O)[O-])ccc2O)c(=O)[nH]1
  2%, -2%, -5, ?
CN(C)C(Cc1ccccc1)C(=O)c1cccs1 (configuration not stated)
  /, -14%, -1, /
Clc1ccc(CN2CCNCC2)cc1
  -7%, -8%, /, 1.5%
Cc1cc(C(=O)OCC(=O)Nc2c(F)cccc2F)c(C)n1C1CC1
  -6%, /, /, 1.4%
Oc1cc(O)cc(/C=C/c2ccc(O)cc2O)c1
  8%, /, /, -1.7%
COc1ccc(N2C(=O)C(=O)N(c3ccc(OC)cc3)P2(=O)N(CCCl)CCCl)cc1
  8%, /, /, 0.0%
C=CCn1c(O)c(C(C)=NCCN2CCOCC2)c(=O)[nH]c1=O
  3%, 2%, -2, -0.8%
COc1ccccc1N1C(=O)NC(=O)/C(=C/c2ccc3c4c(cccc24)CC3)C1=O
  4%, -6%, 1, -1.7%
CCOP(=O)(OCC)C(O)c1cccnc1 (configuration not stated)
  3%, 4%, 2, -0.6%
C[C@]12CCC(=O)C=C1CCC1C2CC[C@@]2(C)C1CC[C@]2(C)O (some centres not stated)
  -14%, /, /, 1.3%
CCN1CCN(c2cc(N3CCCC3)c(F)cc2[N+](=O)[O-])CC1
  -2%, -6%, -8, -1.6%
Cn1c(=O)c2c(nc(-c3ccc(N(CCCl)CCCl)cc3)n2C)n(C)c1=O
  4%, /, /, -4.1%
O=S(=O)(c1ccc(Cl)cc1)N1CCCC1c1cccnc1 (configuration not stated)
  -1%, 1%, 1, 0.3%
Cn1c(O)c(C(=NCCN2CCCCC2)c2ccccc2Cl)c(=O)n(C)c1=O
  19%, -10%, -2, -1.6%
CNC(=O)N(C)c1nnc(C(C)(C)C)s1
  -18%, -3%, -10&12, -3.7%
CCOC(=O)C1(c2ccccc2)CCN(CC(O)c2ccc(NC(C)=O)cc2)CC1 (configuration not stated)
  ?, /, /, -1.3%
COc1ccc(C(=O)NC(=S)N2C[C@H]3C[C@H](C2)c2cccc(=O)n2C3)cc1OC
  -1%, 1%, /, 0.7%
CCCCOCCCn1c(N)c(C(=O)OCCOC)c2nc3ccccc3nc21
  ?, 14%, 3, ?
O=C(CN1CCCCC1)NCC(=O)Nc1ccc(Br)cc1C(=O)c1ccccc1
  26%, 0%, 1, -5.0%
CN1c2ccc([N+](=O)[O-])cc2CC2(C(=O)NC(=O)N(c3ccc(Br)cc3)C2=O)C1c1ccccc1 (configuration not stated)
  -14%, ?, -10, -3.3%
CC(=O)c1ccc(NC(=O)CSc2nc(=O)cc(N)n2-c2ccccc2)cc1
  -9%, -56%, 6, 0.1%
Nc1ncnc2c1ccn2[C@@H]1O[C@H](CO)[C@@H](O)[C@H]1O
  -8%, /, /, -0.2%
Cc1ccc(-c2cc(-c3ccccc3)cc(-c3ccccc3)[n+]2-c2ccc(C(=O)O)cc2)cc1
  25%, /, /, -2.6%
O=C(c1ccc2c(=O)n(Cc3ccc4c(c3)OCO4)c(=S)[nH]c2c1)N1CCC2(CC1)OCCO2
  0%, -2%, -4, -3.5%
COc1ccc(C2NCc3ccc4c(c3-n3cccc32)OCO4)cc1O (configuration not stated)
  -7%, 18%, 13, 2.0%
O=C(C[N+]12CCC(CC1)C(OC(=O)c1ccccc1)C2)c1ccc([N+](=O)[O-])cc1 (configuration not stated)
  2%, 26%, 1, -3.8%
CC1CCN(CCc2nc3ccccc3[nH]2)CC1
  -3%, -1%, /, 1.8%
CN1CCc2nc(SCc3cccc(Br)c3)c(C#N)cc2C1
  16µM*, -11%, -6, ?
CCOP(=O)(OCC)C(NC(=O)c1ccc(C)cc1)=C(Cl)Cl
  -9%, -9%, -3, 0.3%
CCCCCCn1c(O)c(C=NC2CCN(Cc3ccccc3)CC2)c(=O)[nH]c1=O
  -1%, 3%, 1, 1.9%

Next part.
Order of results – Rango release inh, miR-21 FLuc, GLA inh pH 4.5, Rango complex inh
O=c1[nH]c(=S)n(-c2ccccc2F)c(O)c1C=Nc1ccc(N2CCOCC2)cc1
  ?, -5%, 3, ?
O=C(c1ccc2c(c1)ncn2C1CCCCC1)N1CCC2(CC1)OCCO2
  17%, 11%, 1, -0.3%
COC(=O)Nc1nc2ccccc2[nH]1
  0%, /, /, -0.6%
COC(=O)C1=C(c2cccc(C#N)c2)C[C@@H]2CC[C@H]1N2C(=O)NC1Cc2ccccc2C1
  7%, /, /, -5.1%
OC(CNCc1ccccc1)c1ccc(Cl)cc1 (configuration not stated)
  0%, /, /, -2.6%
CC12CCCCC1=[N+]([O-])CN2O (configuration not stated)
  5%, -6%, -6, -1.0%
CCc1cc2c(=O)n(C(C)C(=O)OC3CCCCC3)cnc2s1 (configuration not stated)
  -11%, -49%, 3, -0.2%
COC(=O)C1=C(c2ccc(F)cc2OCc2ccccc2)C[C@@H]2CC[C@H]1N2C(=O)NC(C)C
  -16%, /, /, -1.8%
Fc1ccc(CNCCc2ccccc2F)cc1
  -2%, -12%, 16, -2.6%
Cc1ccc(N2C(=O)/C(=C/N3CCN(C(=O)c4ccco4)CC3)C(=O)NC2=S)cc1C
  -2%, -2%, 5, 0.4%
C=CCn1c(O)c(C(C)=NCc2ccc3c(c2)OCO3)c(=O)[nH]c1=O
  1%, 6%, -5, -0.5%
COC(=O)CCCC(NC(=S)N1CC2C[C@@H](C1)Cn1c2cccc1=O)C(=O)OC (some centres not stated)
  7%, 0%, /, 0.0%
Cn1c(O)c(C=Nc2ccccc2Sc2ccccc2)c(=O)n(C)c1=O
  2%, -1%, -1, -3.1%
C[C@]12CCC3C(CC[C@H]4C[C@H](O)CC[C@]34C)C1C[C@H](O)[C@@H]2O (some centres not stated)
  -3%, /, /, -2.2%
O=C1CC(N2CC=C(c3ccc(F)cc3)CC2)C(=O)N1c1ccc(F)cc1 (configuration not stated)
  0%, -12%, 8, -0.2%
CSc1ccc(C(c2c(O)c3ccccc3oc2=O)c2c(C)n(C)n(-c3ccccc3)c2=O)cc1 (configuration not stated)
  -27%, 2%&4%, 2, 0.0%
O=C(C(=O)N1CCOCC1)c1cn(CCCOc2ccccc2)c2ccccc12
  -4%, -1%, 5, 0.8%
CC(=O)O[C@@H]1/C=C/[C@](C)(O)C[C@@H](C)C/C=C/[C@H]2[C@H](O)[C@@](C)(O)[C@@H](C)[C@H]3[C@H](Cc4ccccc4)NC(=O)[C@@]312
  1%, /, /, -1.7%
c1ccc2nc(OCCN3CC3)ccc2c1
  2%, -13%, -4, 2.1%
CCOC(=O)CC(NC(=O)C(Cc1ccc(N(CCCl)CCCl)cc1)NC(C)=O)C(=O)OCC (configuration not stated)
  -5%, 15%, -3, -0.2%
CCCOP(=O)(OCCC)C(NC(=O)c1ccccc1)=C(Cl)Cl
  0%, -5%, 3, -1.2%
CCC/C(=N\O)c1c[nH]c2ccccc12
  0%, -11%, 7, 0.4%
CN1CCN(c2ncnc3c2cnn3C)CC1
  6%, -5%, -6, 0.7%
O=c1[nH]c(=S)n(Cc2ccc(F)cc2)c(O)c1C=NCC1CCCO1 (configuration not stated)
  -4%, -1%, -9, 1.4%
COc1ccc(/C=C2\C(=O)NC(=S)N(C)C2=O)cc1C
  1%, 2%, 3, 4.7%
COc1ccc2c(CCN)c[nH]c2c1
  -20%, -2%, -6, 3.3%
C=CC1CN2CCC1CC2C(OC(C)=O)c1ccnc2ccc(OC)cc12 (configuration not stated)
  -7%, -5%, 0, -0.6%
Cc1cccn2c(NCC3CCCO3)c(C(C)C)nc12 (configuration not stated)
  6%, -1%, 2, 0.2%
O=C(CNC(=O)c1ccc(Br)cc1)NCC(=O)OCC(=O)c1ccc([N+](=O)[O-])cc1
  ?, -2%, -14, 4.3%
C=CCOC(=O)c1ccccc1N
  4%, /, /, 0.7%

Going on with the list.
Order of results – Rango release inh, miR-21 FLuc, GLA inh pH 4.5, Rango complex inh
CN1C(=O)C(c2ccccc2)C(=O)N(C)C1=O
  -11%, /, /, 1.0%
CCc1nn(CC(=O)N2CCC3(CC2)OCCO3)c(=O)c2cccn12
  -11%, 0%, /, 4.9%
Cc1ccc(CN2CCN(Cc3ccccc3)CC2)cc1
  -5%, -1%, 5, -1.1%
CCCCn1c(=O)c(C=Nc2ccc(Cl)cc2)c(O)n(Cc2ccco2)c1=O
  -16%, -6%, -3, -1.8%
COC(=O)C1=C(c2cc3ccccc3o2)C[C@@H]2CC[C@H]1N2C(=O)NCc1ccco1
  -17%, /, /, -6.6%
COc1ccc(OCC#CCN2CCC(C)CC2)cc1
  -12%, -12%, 3, -0.7%
O=C(Cc1ccccc1)OCC(=O)N1CCN(S(=O)(=O)c2ccc(Cl)cc2)CC1
  6%, /, /, -0.2%
O=C(c1ccccc1F)N1CCC2(CC1)OCCO2
  13%, -2%, /, -0.3%
O=C(NC1CN2CCC1CC2)c1cc(Cl)c([N+](=O)[O-])c2nc[nH]c12 (configuration not stated)
  0%, ?, 4, 5.0%
CCOC(=O)c1c(C)n(C(C)C)c2ccc(OC(=O)c3ccc(N4C(=O)CCC4=O)cc3)cc12
  -8%, -7%, -9, 5.5%
O=C1NC(=O)N(Cc2ccc(F)cc2)C(=O)/C1=C/c1cccs1
  -9%, 3%, 3, -0.7%
CCCCOC(=O)c1ccccc1N
  12%, /, /, 1.8%
O=C1C(c2ccccc2)=C(N2CC2)c2ccccc21
  0%, -4%, 2, 0.2%
C1CCC(NC2CCCCC2)CC1
  -4%, /, /, -3.9%
Clc1ccc(C(OCCN2CCCCC2)c2ccccc2)cc1 (configuration not stated)
  -7%, /, -7, 2.3%
CCOc1cc2c(cc1OCC)-n1cccc1C(c1cccc([N+](=O)[O-])c1)NC2 (configuration not stated)
  -9%, 5%, /, 3.1%
CCN1CCN(c2nc3c(c(=O)[nH]2)CCCC3)CC1
  -13%, -4%, 9, 0.7%
COC(=O)CCCNC(=O)CN1CC(c2ccccc2)CC1=O (configuration not stated)
  8%, -1%, 2, 3.8%
Cn1c(O)c(C=NC2CCN(Cc3ccccc3)CC2)c(=O)[nH]c1=O
  6%, 4%, 3, -3.8%
COc1cc(CN=C(C)c2c(O)n(C)c(=O)n(C)c2=O)cc(OC)c1
  -3%, 2%, -7, 0.1%
Cc1nc2ccccc2c(=O)n1-c1cccnc1
  2%, -2%, -6, 1.0%
CC1C(=O)OC2CCN3CC=C(COC(=O)C(C)(O)C1(C)O)C23 (configuration not stated)
  -9%, /, /, -2.1%
CCCCOc1ccc(C(C)=O)cc1Cc1c(O)[nH]c(=S)[nH]c1=O
  -3%, -4%, /, 3.6%
COc1ccc2[nH]c3c(c2c1)CCN=C3C
  -6%, /, -11, ?
Nc1ccccc1C(=O)OCCc1ccccc1
  -6%, /, /, -3.0%
Cc1cc(OC(=O)N(C)C)n(-c2ccccc2)n1
  -2%, 2%, -17, 1.0%
Cc1ccccc1NC1=NCC(C)S1 (configuration not stated)
  25%, -1%, 3, 7.0%
Brc1ccc(-[n+]2c(-c3ccccc3)cc(-c3ccccc3)cc2-c2ccccc2)cc1
  16%, /, /, 0.4%
CCN1CCN(Cc2cc(Br)cc(Br)c2O)CC1
  ?, -1%, -4, 1.1%
O=C1NC(=O)N(c2ccc3c(c2)OCO3)C(=O)/C1=C/c1cccs1
  -12%, -2%, -2, -1.4%

Later entries
Order of results – Rango release inh, miR-21 FLuc, GLA inh pH 4.5, Rango complex inh
COC(=O)C1=C(c2ccc(OC)c(OC)c2)C[C@@H]2CC[C@H]1N2C(=O)NCCc1ccccc1
  3%, /, /, -2.6%
COc1cc(CC2C(=O)N(C)C(=O)N(C)C2=O)ccc1OCc1ccccc1
  14%, -40%, 5, -1.4%
CC1CCCC(NC(=O)COC(=O)Cc2ccccc2)C1C (configuration not stated)
  -10%, -2%, -7, -0.7%
NP(=O)(Nc1ccccc1)Nc1ccccc1
  19%, /, /, 3.0%

One compound at a time (already shown). Order of values: Rango release inh, miR-21 FLuc, GLA inh pH 4.5, Rango complex inh
Shown for O=C1NC(=O)N(Cc2ccc(F)cc2)C(=O)/C1=C/c1cccs1 → -9%, 3%, 3, -0.7%
Shown for Cn1c(O)c(C(=NCCN2CCCCC2)c2ccccc2Cl)c(=O)n(C)c1=O → 19%, -10%, -2, -1.6%
